# Bead autofluor: counter-screen for toxin protease inhibitors: compound fluorescence. 3.1% of 360,000 active. fluorescence intensity (concentration not given with the values). compound autofluorescence counterscreen, microsphere flow cytometry; hits give high values;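 active = at least 3 SD above the mean of all compounds, about 16000 in these data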;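 note: 100 nL of 1 mM stock went into each well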
# * hit, by the source's call. Not all compounds are listed; rates above refer to the full screens.
SMILES,Bead autofluor
COC(=O)c1ccc2nc(-c3cccc(Br)c3)c(Cc3cccc(F)c3)n2c1,4837
Cc1ccc(S(=O)(=O)N2C[C@H]3n4c(=O)ccc(=O)n4C[C@H](OC(=O)Nc4c(C)noc4C)[C@@]3(O)C2)cc1,3416
C[C@@H]1CN([C@@H](C)CO)C(=O)c2cc(Br)cnc2O[C@@H]1CN(C)Cc1cncnc1,2887
CCc1nc2ccc(C(=O)Nc3cc(-c4ccccc4)ccc3OC)cn2c1N(C)Cc1ccc(Cl)cc1,3595
COCCNC(=O)C1(C)Cc2c(-c3cccc(C(N)=O)c3)ccnc2O1 (centres undefined),3535
COc1cc(CNC(=O)Nc2cccn3nc(COCCO)nc23)cc(OC)c1OC,3746
CC1=C2C3OC(=O)C(C)C3CCC2(C)C=C(Cl)C1=O (centres undefined),2673
CCc1nc2ccc(C(=O)Nc3ccc(NC(C)=O)cc3)cn2c1N(C)CCCc1ccccc1,3883
CCCS(=O)(=O)NC(=O)C1(C)CCN(C(=O)c2ccco2)C1 (centres undefined),4338
CCC(=O)Nc1cc(OC)c(NC(=S)Nc2ccccc2CC)cc1OC,3944

# Gathered by group: the entries above with a halogen.
SMILES,Bead autofluor
COC(=O)c1ccc2nc(-c3cccc(Br)c3)c(Cc3cccc(F)c3)n2c1,4837
C[C@@H]1CN([C@@H](C)CO)C(=O)c2cc(Br)cnc2O[C@@H]1CN(C)Cc1cncnc1,2887
CCc1nc2ccc(C(=O)Nc3cc(-c4ccccc4)ccc3OC)cn2c1N(C)Cc1ccc(Cl)cc1,3595
CC1=C2C3OC(=O)C(C)C3CCC2(C)C=C(Cl)C1=O (centres undefined),2673

# New compounds follow.
SMILES,Bead autofluor
CCOC(=O)[C@]12CCC=C1N(Cc1ccc3c(c1)OCO3)C(=O)[C@H](CC(=O)NCc1ccc(OC)c(OC)c1)C2,5796
CC(C)NC(=O)c1ccc(-c2ccc(F)c(F)c2)c2ccoc12,3498
CCc1nc2cc(NC(=O)C3(C)CCCN(C(C)=O)C3)ccc2o1 (centres undefined),3817
O=S1(=O)CC(N2CCC(Cc3ccccc3)CC2)CN1C1CCCC1 (centres undefined),5427
O=C1NC[C@H](CCCCN2C[C@H](Cc3ccccc3)N(Cc3ccccc3)C(=O)C2=O)N(CCC2CCCCC2)C1=O,5042
O=c1[nH]c2ccccc2n1C1CCN(Cc2ccc(-c3nc4ccccc4nc3-c3ccccc3)cc2)CC1,4891
OC[C@@H]1CN(Cc2ccc(Cl)cc2)C[C@H](n2cnc3c(NC4CC4)ncnc32)O1,3987
COc1ccc(NC(=O)c2cc(C3CCCCN3S(=O)(=O)Cc3ccccc3)on2)c(C)c1 (centres undefined),3807
COCCCNC(=O)c1cccc2c(-c3ccnn3C)coc12,3430
COc1ccc(-c2ccc(C(=O)Nc3ccc(NC(C)=O)cc3)c3occc23)c(C)c1,3819
CCNC(=O)C1(C)CCN(C(=O)c2ccc(C)c(F)c2)C1 (centres undefined),4225
COc1ccccc1C(NC(=O)C1CCN(CCOc2ccc(Cl)cc2)CC1)c1ccccn1 (centres undefined),3903
CCOC(=O)[C@]12CCC=C1N(Cc1ccc(Cl)cc1Cl)C(=O)[C@H](CC(=O)NCc1ccccc1)C2,5659
CCCCn1nnnc1C(c1ccccc1)N1CCN(c2ccccc2)CC1 (centres undefined),5908
CCc1nc2c(OCc3cc(Cl)cc(Cl)c3)cccn2c1N(C)C(=O)c1cccc(OC)c1,3817
COc1ccc(CN(C)CCCn2ccc(NC(=O)OCc3ccccc3)nc2=O)cc1OC,3483
CC(=O)NC(c1cccc(F)c1)c1nc(-c2cnn(C)c2)cs1 (centres undefined),2761
COc1cccc(C(NC(C)=O)c2nc(-c3cccnc3)cs2)c1 (centres undefined),3510
Cc1ccc(Cc2c(-c3ccccc3)nc3ccc(Br)cn23)cc1,3173
CCOC(=O)[C@]12CCCC=C1N(Cc1ccco1)C(=O)[C@H](CC(=O)NCCc1ccccc1OC)C2,5861
CC(=O)C1CCC2C3CCC4CC(O)CCC4(C)C3CCC12C#N (centres undefined),2928
CN1OC[C@@H]2CN(S(=O)(=O)c3cccc(C(F)(F)F)c3)[C@H](c3ccc(-c4cccnc4)cc3)C[C@@H]21,3675
COC(=O)C1CCN(C2CN(Cc3ccc(F)cc3)S(=O)(=O)C2)CC1 (centres undefined),5357
CCN(CC)C(=O)C1=C(C)N(CCCOC)C(=O)C(CC(=O)NC2CC2)C1 (centres undefined),3638
CCN(CC)C(=O)c1csc([C@@H]2O[C@H](CO)[C@H](O)[C@H](O)[C@H]2O)n1,3942
CCCCc1c(-c2ccc(F)cc2F)ncn1CCc1ccccc1OC,5778
CCCCc1c(-c2ccccc2OC)ncn1C1CCCC1,6003
c1ccc(COc2ncnc3c2ncn3CCCN2CCN(Cc3cccc4ccccc34)CC2)cc1,3541
COc1ccc(NC(=O)c2cc(C3CCCCN3C(=O)c3cc(OC)c(C)c(OC)c3)on2)c(C)c1 (centres undefined),3445
CCOC(=O)C1=CCN(S(=O)(=O)c2ccccc2Cl)C1c1cccc(C)c1 (centres undefined),6215
COc1ccc(C(=O)NCC(=O)OCC(=O)c2ccccc2Br)cc1OC,3882
COc1cc(-c2cnc3c(NC=O)cc(-c4ccccc4Cl)cn23)cc(OC)c1OC,3761
CCOC(=O)C1CCCN(C(=O)c2cccc3ccccc23)CC1 (centres undefined),3965
COc1cccc(-c2nc3n(n2)CCc2ccccc2-3)c1,2932
COc1ccc(-c2noc(-c3csc([C@@H]4C[C@H](O)[C@@H](CO)O4)n3)n2)cc1OC,3025
O=S1(=O)CCN(Cc2ccncc2)CC1,3029
CCCCNC(=O)C1(C)CCCCN1Cc1ccc(OCc2ccccc2)cc1 (centres undefined),3363
CC(C)COC(=O)N(C)C[C@H]1OCc2cnnn2CCCC(=O)N([C@H](C)CO)C[C@H]1C,3084
CC(=O)Nc1cc(-c2ccc(C(=O)N3CCOCC3)cc2)cn2c(-c3cccc(C(C)=O)c3)cnc12,3869
O=c1[nH]c2ccccc2n1C1CCN(C(c2ccnc3ccccc23)c2nnnn2Cc2ccccc2)CC1 (centres undefined),5551
CC(C)CNC(=O)c1[nH]c(C(F)(F)F)nc1-c1ccccc1,5689
O=S(=O)(Nc1ccc(O)c2ncccc12)c1ccccc1F,2740
C#CCN(C[C@@H]1[C@@H](OC(=O)Nc2c(C)noc2C)[C@@H](OC(=O)Nc2c(C)noc2C)Cn2c(=O)n(CCCCCC)c(=O)n21)S(=O)(=O)c1ccc(C)cc1,4278
O=C1c2ccccc2-n2nnc(-c3ccccc3)c2C2c3cc(Br)ccc3CCN12 (centres undefined),6249
O=C(NCc1cccc(Cl)c1)C1Cc2c(-c3ccccc3)ccnc2O1 (centres undefined),3693
CSc1ncnc2c1ncn2CCCNCc1cccc2ccccc12,3691
O=C(CCc1c[nH]c2ccccc12)OCC(=O)c1ccccc1,3050
CCCCCC(=O)N1C[C@@H](n2cc(COC(=O)c3ccccc3)nn2)[C@H](O)C[C@@H]1c1ccc(C)cc1,2913
Cc1ccccc1S(=O)(=O)NC(=O)C1(C)CCN1C(=O)C1(c2ccccc2)CCCC1 (centres undefined),2832
COC(=O)[C@@]1(C(C)C)N=C(c2cc(OC)c(OC)c(OC)c2)[C@]2(O1)C(=O)N(C)c1ccc(Cl)cc12,5238

# Additional structures.
SMILES,Bead autofluor
O=C(O)c1cccc(-c2csc(C(O)c3ccccc3)n2)c1 (centres undefined),2888
Cc1ncoc1C(=O)NCC1=C(c2ccc(S(C)(=O)=O)cc2)C[C@@H]2CC[C@H]1N2CCOc1ccccc1,3590
CC(=O)c1cccc(-c2ccnc3c2CC(C(=O)NC(C)C)O3)c1 (centres undefined),3403
COc1ccc(-c2cc3nc(NCC4CCCCC4)n(C)c(=O)c3s2)cc1OC,3864
CCc1cnc(Nc2nc(C(N)Cc3ccc(F)cc3)cs2)nc1 (centres undefined),4456
COC(=O)c1ccc(Cn2c(C)c(C(=O)Nc3cccc(Oc4ccccc4)c3)sc2=O)o1,3963
NC(=O)CCC(C(=O)O)N1C(=O)C2C3CCC(C3)C2C1=O (centres undefined),3634
CC(=O)NCCc1ccc(C(=O)COC(=O)c2cccs2)cc1,4037
COc1ccc(CNC(=O)c2cn(Cc3ccccc3F)c(=O)s2)cc1,5772
C[C@@H]1CN([C@@H](C)CO)S(=O)(=O)c2ccc(Br)cc2O[C@H]1CN(C)C(=O)c1cccc(F)c1,2993

# Part of the list above, set out differently.
CCOC(=O)[C@]12CCCC=C1N(Cc1ccco1)C(=O)[C@H](CC(=O)NCCc1ccccc1OC)C2
  Bead autofluor: 5861

CC(=O)C1CCC2C3CCC4CC(O)CCC4(C)C3CCC12C#N (centres undefined)
  Bead autofluor: 2928

CN1OC[C@@H]2CN(S(=O)(=O)c3cccc(C(F)(F)F)c3)[C@H](c3ccc(-c4cccnc4)cc3)C[C@@H]21
  Bead autofluor: 3675

# Remaining list, next part.
SMILES,Bead autofluor
Cc1ccc([C@H]2N[C@]3(CCCN(Cc4ccco4)C3=O)[C@H]3C(=O)N(Cc4ccccc4)C(=O)[C@@H]23)cc1,3823
O=C(NCCN1CCC(n2c(=O)[nH]c3ccccc32)CC1)c1c(F)cccc1F,4433
COCCN1C(=O)CCC1(C)C(=O)Nc1c(C)cccc1C (centres undefined),3986
O=C(NCc1ccccc1)c1cc(C2CCCCN2C(=O)CCc2ccccc2)on1 (centres undefined),3016
Cn1cc(-c2csc(C(C)(O)c3cccnc3)n2)cn1 (centres undefined),3353
COc1ccc(Cl)cc1-c1cc(C(=O)Nc2ccc(C)c(NS(C)(=O)=O)c2)[nH]n1,3432
CC(C)NC(=O)C1(C)CCN1C(=O)c1cccc(F)c1 (centres undefined),3757
O=C(N/C(=C/c1cccc(Br)c1)C(=O)N1CCCCC1)c1ccco1,3856
Cc1nn(C2CCS(=O)(=O)C2)c(C)c1CN(C)C(=O)c1ccc(F)cc1 (centres undefined),2971
O=C(NCC1CC1)C1Cc2c(-c3ccc4c(c3)OCO4)ccnc2O1 (centres undefined),3074
CC1(c2nc3ccccc3[nH]2)c2ccccc2C(=O)N1Cc1ccccc1 (centres undefined),4535
Cc1ccc(F)c(S(=O)(=O)NC(=O)C2(C)CCN2C(=O)Cc2cccs2)c1 (centres undefined),3620
CC(=O)Nc1ccc(-c2cc(C(=O)O)c3cc4ccccc4cc3n2)cc1,3685
O=C(O)c1ccc(CN2C[C@@H](CO)O[C@@H](n3cnc4c(NCc5ccco5)ncnc43)C2)cc1,2779
COc1ccc(N2CCN(c3cc(C(=O)NC4CCCCC4)ncn3)CC2)cc1OC,3564
O=C(CN1CCCc2ccccc21)Nc1cccc(S(=O)(=O)N2CCCC2)c1,10660
C[C@@H]1CN([C@H](C)CO)S(=O)(=O)c2ccc(C3=CCCCC3)cc2O[C@H]1CN(C)C(=O)Cc1cccnc1,3619
COCC1CCN(C(=O)c2ccc3oc(CCc4ccccc4)nc3c2)C1 (centres undefined),3978
CC1(C(=O)NS(=O)(=O)C2CC2)CCCN(C(=O)Cc2ccc(F)cc2)C1 (centres undefined),3813
CC1COCC(C)N1C(=O)c1cccnc1 (centres undefined),3827
O=C(COc1ccc(Cl)cc1Cl)NCCN1CCCC1,3598
Fc1cc(Cl)cc2ccc(-c3ccccc3)nc12,6304
O=C(c1c(F)cccc1Cl)N(Cc1ccco1)C1CCS(=O)(=O)C1 (centres undefined),3785
C=CCNc1nc2cc(-c3ccc(C(=O)N4CCOCC4)cc3)sc2c(=O)n1C,2967
CCCn1c(SC(C)C(=O)NC2CCCC(C)C2C)n[nH]c1=O (centres undefined),3141
COc1ccc(-c2ccc(C(=O)Nc3cccc(N(C)C)c3)c3occc23)c(C)c1,3878
O=C(c1cccc(Cl)c1)N1CCC(=O)N([C@H](COCc2cccc(Cl)c2)Cc2ccccc2)CC1,5089
Cc1cc2nc(C3CCCCC3)c(CC(C)(C)C)n2c(C)c1Br,5863
Cc1cc(C)cc(Cn2c3ccc(NC(=O)NCc4ccccc4)cc3c(=O)n2C)c1,3612
COc1cccc(OC)c1C(=O)OCC(=O)NCC1CCCCC1,3713

# Molecules listed so far with a furan ring, fused or not:
SMILES,Bead autofluor
CCCS(=O)(=O)NC(=O)C1(C)CCN(C(=O)c2ccco2)C1 (centres undefined),4338
CC(C)NC(=O)c1ccc(-c2ccc(F)c(F)c2)c2ccoc12,3498
COCCCNC(=O)c1cccc2c(-c3ccnn3C)coc12,3430
COc1ccc(-c2ccc(C(=O)Nc3ccc(NC(C)=O)cc3)c3occc23)c(C)c1,3819
CCOC(=O)[C@]12CCCC=C1N(Cc1ccco1)C(=O)[C@H](CC(=O)NCCc1ccccc1OC)C2,5861
COC(=O)c1ccc(Cn2c(C)c(C(=O)Nc3cccc(Oc4ccccc4)c3)sc2=O)o1,3963
Cc1ccc([C@H]2N[C@]3(CCCN(Cc4ccco4)C3=O)[C@H]3C(=O)N(Cc4ccccc4)C(=O)[C@@H]23)cc1,3823
O=C(N/C(=C/c1cccc(Br)c1)C(=O)N1CCCCC1)c1ccco1,3856
O=C(O)c1ccc(CN2C[C@@H](CO)O[C@@H](n3cnc4c(NCc5ccco5)ncnc43)C2)cc1,2779
O=C(c1c(F)cccc1Cl)N(Cc1ccco1)C1CCS(=O)(=O)C1 (centres undefined),3785
COc1ccc(-c2ccc(C(=O)Nc3cccc(N(C)C)c3)c3occc23)c(C)c1,3878

# Other records:
SMILES,Bead autofluor
CC1=C(C(=O)N(C(C)C)C(C)C)CC(CC(=O)NC2CC2)C(=O)N1Cc1ccccc1 (centres undefined),5450
C[C@H]1COc2cccc(N3CCN(C)CC3)c2S(=O)(=O)N1,4591
CN1CCCC(C)(C(=O)Nc2cccc(Oc3ccccc3)c2)C1 (centres undefined),3776
CC1(C(=O)NS(=O)(=O)C2CC2)CCCN(C(=O)/C=C/c2ccccc2)C1 (centres undefined),3852
CCOC(=O)C1=CCN(S(=O)(=O)c2ccc(C)cc2)C1c1cccs1 (centres undefined),6121
O=S1(=O)CC(N2CCN(Cc3ccccc3F)CC2)CN1Cc1cn(Cc2ccc(F)cc2)nn1 (centres undefined),3924
COc1cc2c(cc1CNC[C@H]1O[C@@H](n3cc(C)c(=O)[nH]c3=O)C[C@@H]1O)OCO2,4153

# Assay outcomes from PubChem BioAssay.
